CSC inhib = cancer stem cell inhibition; 300,000 compounds, 1.1% hits; inhibition, % at 7.5 µM; cancer stem cell-like cells viability, luminescence; AID 2717;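 active = mean at 75% or more and at least half the replicates too; inconclusive = mean and replicates disagree; tested in HMLE shEcad cells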;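 note: 0% = median of negative and 100% = median of positive control wells; the first replicate is given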
PABP polyA inh = blocks human PABP binding to poly(A) RNA; P11940; fluorescence polarization; inhibition, % at 35 µM; 290,000 compounds, 1% hits; AID 2014;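 active = 50% or more with normal probe brightness, or confirmed in later tests; inconclusive = above 50% with abnormal brightness, or retests that disagree; inactive = below 50% or failed in later tests; about a fifth of its hits are not listed in these tables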;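 note: calls also rest on retests at 20 µM and on dose response follow-up; controls were probe without protein and protein plus probe with vehicle; some compounds called inactive have numbers as strong as hits; many hits fall short of the cut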
Target sequence (P11940 whole entry, looked up): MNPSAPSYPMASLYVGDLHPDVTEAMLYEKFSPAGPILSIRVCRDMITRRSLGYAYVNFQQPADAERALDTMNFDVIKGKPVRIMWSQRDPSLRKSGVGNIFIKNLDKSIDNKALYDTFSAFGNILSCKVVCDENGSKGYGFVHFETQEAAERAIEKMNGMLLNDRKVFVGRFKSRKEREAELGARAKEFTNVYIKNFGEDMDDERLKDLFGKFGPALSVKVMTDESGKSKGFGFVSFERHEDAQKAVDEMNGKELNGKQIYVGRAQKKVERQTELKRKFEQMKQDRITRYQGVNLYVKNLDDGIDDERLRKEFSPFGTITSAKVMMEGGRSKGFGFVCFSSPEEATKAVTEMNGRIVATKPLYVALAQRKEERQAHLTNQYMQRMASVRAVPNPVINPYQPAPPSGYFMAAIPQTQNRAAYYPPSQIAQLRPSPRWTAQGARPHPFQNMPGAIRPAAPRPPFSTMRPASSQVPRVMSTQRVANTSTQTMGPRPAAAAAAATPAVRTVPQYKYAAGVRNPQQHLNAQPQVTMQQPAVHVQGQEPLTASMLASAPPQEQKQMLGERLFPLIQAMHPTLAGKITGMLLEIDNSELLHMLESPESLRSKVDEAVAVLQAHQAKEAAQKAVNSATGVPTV
UUG fidelity = alters start codon recognition fidelity in yeast; S. cerevisiae UUG-firefly luciferase reporter, luminescence/redox ratio; activity score, % at 18.7 µM; 350,000 compounds, 0.13% hits;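 active = replicate mean at a twofold rise or more, about +100% in these data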;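 note: firefly luciferase made from a UUG start codon reports start codon fidelity; reporter light over untreated wells divided by growth signal over untreated wells; some hits fall short of that in this replicate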
Rce1 inh = blocks yeast Ras-converting enzyme | Q03530 | yeast membranes, quenched prenylated peptide cleavage fluorescence | calls only | 290,000 compounds, 0.27% hits;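 active = fall in fluorescence gain of 50% or more versus controls, with final raw signal at or below 3038400; inconclusive = same 50% fall but final raw signal above 3038400; inactive = fall in fluorescence gain under 50%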;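 note: plate controls were neutral control wells for no effect and wells lacking membranes for full effect; tested at 10 µM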
MT1-MMP act inh = inhibitors of human MT1-MMP activation; GFP/RFP ratio change, % at 20 µM; HT1080 RFP-PRO-GFP cells, GFP/RFP ratio fluorescence, overnight; percent of plate control window, DMSO zero; P50281; 360,000 compounds, 0.061% hits;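 active = GFP/RFP ratio change of at least 30% with cell ATP level not reduced by more than half and red fluorescence within 50% of control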; note: strong numbers were not always called active
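Assay system – RFP-PRO-GFP reporter HT1080 cells · Compound dosing – single dose of 20 µM compound, 1% DMSO final · Incubation – overnight compound exposure at 37 °C · Measure – GFP/RFP fluorescence ratio · Benchmarks – DMSO wells and RFP-L50D-GFP cells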
eIF4H inh = inhibitors of RNA binding by human eIF4H | Q15056 | eIF4H fluorescence polarization binding assay | inhibition, % at 35 µM | 290,000 compounds, 0.94% hits | AID 2012;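 active = 50% or more with normal probe brightness, or confirmed in later tests; inconclusive = above 50% with abnormal brightness, or retests that disagree; inactive = below 50% or failed in later tests; about a fifth of its hits are not listed in these tables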;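 note: calls also rest on retests at 20 µM and on dose response follow-up; 0% = protein and probe with vehicle and 100% = probe without protein; strong numbers were not always called active; many hits fall short of the cut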
HIV Env fusion = inhibitors of HIV Env-mediated cell fusion. AID 651610. 360,000 compounds, 1.1% hits. HeLa-JRFL Env/CEM21 cell fusion, luciferase. inhibition, % at 12.3 µM;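 active = mean replicate inhibition score of at least 50 and every replicate individually at or above 50; inconclusive = only one of the two criteria met; inactive = mean below 50 and not all replicates reaching 50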;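 note: 0% = plate neutral controls and 100% = maraviroc near 300 nM; one replicate is shown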
MT1-MMP act inh RFP = second read-out of MT1-MMP act inh, no call of its own (marks repeat the call); RFP signal change, %; measured here: RFP expression control read;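 0 = vehicle wells; hits needed this value within 50% of zero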
An asterisk follows results filed as active; i = inactive; ? = inconclusive; / = no result given; & = joins results of further samples. Some of the compounds tested; the hit share may differ from the screen's.

smiles | CSC inhib | PABP polyA inh | UUG fidelity | Rce1 inh | MT1-MMP act inh | MT1-MMP act inh RFP | eIF4H inh | HIV Env fusion
Cc1occc1C(=O)N=Nc1c(O)[nH]c2ccc(Br)cc12 | 1 | 4 | / | i | / | / | 3 | /
CCCCCc1nnc(NC(=O)OCCC)s1 | -2 | 8 | -15 | i | 1 | 1 | 6 | -17
CCOc1ccc(N(CC(=O)Nc2ccc(C)c(C)c2)S(=O)(=O)c2c(C)noc2C)cc1 | 11 | -2 | -14 | i | -7 | -22 | -10 | 5
O=C(NCc1ccccc1Cl)c1ccc(-c2ccccc2)cc1 | 3 | 2 | / | i | -1 | -3 | 0 | 2
O=C(N/N=C/c1sc(N2CCOCC2)nc1-c1ccccc1)c1ccccc1F | -12 | 1 | / | i | / | / | 3 | /
CC(C)(C)Nc1nc(-c2ccccn2)nc2ccccc12 | 36 | -12 | -30 | i | 2 | -13 | 3 | 42
COc1cc(C(=O)Nc2cc(S(=O)(=O)N3CCOCC3)ccc2N2CCOCC2)ccc1OC(F)F | / | / | 9 | / | 0 | 3 | / | -9
Cc1ccc(S(=O)(=O)Cc2ccc(C(=O)N3CCCCCC3)o2)cc1 | -26 | -13 | -2 | i | 1 | -3 | -2 | 23
CCCn1nnc(NC(=O)c2cc3ccccc3o2)n1 | 3 | -2 | -22 | i | -2 | 2 | -3 | /
CCOc1ccc(N2C(=O)c3ccccc3C2O)cc1 (stereo unspecified) | 16 | -2 | -24 | i | -1 | 6 | -1 | -91
O=C(NCc1cccs1)c1ccc(Cl)s1 | -8 | -4 | / | i | -6 | 1 | -10 | -25
CCOC(=O)C1(Cc2cccc(Cl)c2)CCCN(C(=O)c2ccoc2C)C1 (stereo unspecified) | 0 | 2 | -2 | i | -1 | -1 | 0 | 2
CC1=C(C(=O)NCCN2CCN(C)CC2)C2(CCC(C)CC2)OC1=O (stereo unspecified) | -4 | 1 | -25 | i | -10 | 2 | -8 | ?
CCOCCCNC(=O)c1ccc(N2CC3CC(C2)c2cccc(=O)n2C3)c(NC(=O)Nc2cccc(OC)c2)c1 (stereo unspecified) | -7 | / | -2 | i | 1 | 4 | / | -9
O=C(CN1C(=O)CC(c2ccco2)Sc2ccccc21)Nc1ccc2c(c1)OCCO2 (stereo unspecified) | -10 | 0 | / | i | 5 | 5 | -10 | /
CCOC(=O)c1[nH]c2ccc(F)cc2c1NC(=O)C(C)N1CCc2cc(OC)c(OC)cc2C1 (stereo unspecified) | 27 | 18 | -4 | i | 1 | -3 | -1 | -11
CCCCc1nc(N2CCOCC2)c(C#N)c2c1CCCC2 | 45 | -3 | 8 | i | -1 | -7 | -13 | /
N#Cc1c(-c2ccccc2)nc2n(c1=O)CCS2 | -7 | -2 | -19 | i | 4 | 5 | 0 | -62
CC(C)C1=C2OC(N)=C(C#N)C(C#N)=C2C(C)CC1 (stereo unspecified) | 8 | 10 | 4 | i | -29 | -5 | 18 | -18
CN1C(=O)C(Cl)(Cl)C(=O)c2ccccc21 | / | -5 | -11 | i | 2 | 3 | -1 | /
Oc1ccc2ccccc2c1Br | -7 | 1 | -14 | i | 1 | 6 | -3 | -3
COC(=O)c1ccc2[nH]c(CO)c(-c3ccccc3)c2c1 | 20 | -4 | -6 | i | 1 | 1 | -20 | -6
CCC1S/C(=C(\C#N)C(=O)NCc2ccco2)N(c2ccc(Br)cc2)C1=O (stereo unspecified) | 4 | 91* | -12 | i | -6 | 1 | 73* | /
CC(C)c1ccc(OCCCCN2CCCCC2)cc1 | 40 | -4 | -11 | i | -1 | -1 | 2 | 33
O=C(O)C1CCN(S(=O)(=O)c2ccc(N3CCC(O)CC3)c([N+](=O)[O-])c2)CC1 | -11 | 2 | -10 | i | 1 | 5 | 34 | -25
CC(C)c1ccc(CN2CCC(C(=O)NCc3cccnc3)CC2)cc1 | -13 | 9 | -29 | i | 6 | 8 | -10 | -9
CCOC(=O)c1sc(=S)n(CC)c1NC(=O)c1ccccc1 | -3 | 1 | -8 | i | 1 | -3 | -10 | 5
O=C(CCc1ccc(S(=O)(=O)NCc2ccccc2)cc1)NCc1ccc2c(c1)OCO2 | / | 3 | -3 | i | 2 | 0 | 3 | 41
CCOc1cc(/C=N/N2CCOCC2)ccc1OCc1ccc(C(=O)OC)o1 | / | -2 | -13 | i | 3 | -3 | 5 | 2
N#C/C(C(=O)Nc1ccc(Cl)cc1)=C(/S)Nc1ccccc1 | 31 | 32 | -28 | i | 2 | 2 | 5 | 0
COc1cccc(NC(=O)COC(=O)CCCc2c[nH]c3ccccc23)c1 | -3 | 2 | -7 | i | 12 | 6 | 0 | -59
CC(=O)c1ccc(OC2(C)CCN(Cc3ccccc3OC(F)F)C2)cc1 (stereo unspecified) | / | / | -12 | / | -3 | 2 | / | -9
COc1cc(CNc2ccc3[nH]c(=O)[nH]c3c2)ccc1OCC(=O)NC(C)(C)C | -15 | 26 | -21 | i | -14 | -8 | 20 | -16
O=C(NCCCC1CCCC1)C1CCC(=O)N(Cc2cccc(F)c2)C1 (stereo unspecified) | 1 | 1 | 1 | i | 4 | 1 | -4 | /
CC(C)CCNC(=O)CCn1nc(-c2ccc(Cl)cc2)ccc1=O | / | -2 | -10 | i | 4 | 3 | -5 | 19
CC(C)CCC(=O)Nc1cc(S(=O)(=O)N2CCOCC2)ccc1N1CCCC1 | / | / | -3 | / | 1 | 6 | / | -15
CCOC(=O)N1CCC(NC(=O)c2sc(-n3cccc3)nc2C)CC1 | 19 | -10 | 5 | i | 1 | -3 | -7 | /
O=C(c1ccc(Br)o1)N1CCCc2ccccc21 | 0 | -3 | -32 | i | 2 | 4 | -6 | /
O=C1COc2ccc(C(=O)COC(=O)c3cc(S(=O)(=O)N4CCOCC4)ccc3F)cc2N1 | -5 | -19 | -1 | i | -3 | 1 | -3 | 19
Cc1ccc(NC(=O)CN(C)Cc2nc3c(Br)cc(Br)cc3c(=O)[nH]2)cc1 | / | -13 | -11 | i | 7 | 5 | 16 | 20
COc1ccc(NC(=O)C2CC2(Cl)Cl)cc1S(=O)(=O)N1CCCCC1 (stereo unspecified) | / | / | 4 | / | 2 | -1 | / | -6
CC1(C)CC(=O)C2=C(C1)N(c1ccc(F)cc1)C(=O)CC2c1ccccc1 (stereo unspecified) | -13 | -9 | -9 | i | 6 | 6 | 35 | ?
COc1ccccc1Nc1nc(N)nc(CN2CCN(c3ccccc3F)CC2)n1 | -12 | 10 | / | i | 3 | 2 | -5 | -85
O=S(=O)(c1cccc(NC(=S)NCc2ccco2)c1)N1CCOCC1 | -10 | 9 | / | i | -1 | 1 | -4 | 17
c1ccc(Nc2n[nH]nc2-c2ccccc2)cc1 | -3 | -8 | -17 | i | 0 | 2 | -10 | -73
CC(=O)Oc1ccc(C(=O)Nc2cccnc2)cc1 | -5 | -8 | -10 | i | -2 | 2 | -14 | 10
CCCCN(CC)CCNc1c(N2CCN(C(=O)OCC)CC2)c(=O)c1=O | / | 1 | -21 | i | -1 | 3 | 6 | -27
Cc1ccc(NC(=O)NCCCN2CCCC2=O)c(C)c1 | -9 | -4 | 5 | i | -5 | 2 | -9 | -4
COc1ccc(-n2c(C)nc3sc4c(c3c2=O)CCC4)cc1 | / | ? | / | i | 2 | -1 | 31 | 15
Cc1noc(C)c1CSCC(=O)Oc1ccc(N(C)S(=O)(=O)c2ccccc2)cc1 | -4 | / | -12 | i | -3 | 2 | / | -1
COc1ccc(C(=O)NCc2cc(C)nc3ccccc23)cc1OC | 9 | -5 | -14 | i | -1 | -6 | -2 | 7
O=C(NNC1CC(=O)N(c2ccccc2)C1=O)c1ccccc1Cl (stereo unspecified) | -6 | -2 | / | i | 2 | 2 | -6 | -4
CCOC(=O)C1=C(c2ccccc2)NC(SC)=C(C#N)C1c1cccnc1 (stereo unspecified) | 4 | -5 | / | i | -3 | 0 | -3 | 5
CCn1c2ccccc2c2cc(NC(C)=O)ccc21 | 8 | -4 | -11 | i | 3 | 3 | -2 | /
Cc1nn(C)c(C)c1CCC(=O)N1CCCC(N2CCN(c3ccc(F)cc3)CC2)C1 (stereo unspecified) | 4 | -1 | -19 | i | 3 | 3 | -7 | -2
CC(NCc1cccc(S(=O)(=O)N(C)C)c1)c1ccc(F)cc1 (stereo unspecified) | -5 | 3 | -10 | i | 6 | 6 | 5 | 8
Cc1cccc(NC(=S)/N=C(\N)Nc2nc(C)c3ccccc3n2)c1 | 15 | -8 | -18 | i | -2 | -10 | 3 | 7
O=C(NC(=S)Nc1c(F)cc(F)cc1Br)c1ccc2c(c1)OCCO2 | 8 | -4 | / | i | 6 | -2 | -3 | 16
COc1ccc(S(=O)(=O)N2CCN(Cc3cccnc3)CC2)cc1 | / | -4 | -12 | i | 1 | 1 | 10 | -5
COc1ccc(C)cc1S(=O)(=O)N(C)CC(=O)Nc1ccc2c(c1)OCO2 | -2 | 3 | 8 | i | 7 | 2 | -5 | /

Next compounds
smiles | CSC inhib | PABP polyA inh | UUG fidelity | Rce1 inh | MT1-MMP act inh | MT1-MMP act inh RFP | eIF4H inh | HIV Env fusion
O=C(NCCCN1CCOCC1)c1ccc2c(c1)N(Cc1c(F)cccc1Cl)C(=O)CS2 | -8 | 14 | / | i | 2 | 0 | 2 | -9
O=C(NNC(=O)c1cc(S(=O)(=O)N2CCOCC2)ccc1Cl)c1ccc(F)cc1 | / | / | 4 | / | 1 | -1 | / | -12
Cc1ccc(O)c(CNc2nc3ccccc3n2C)c1 | 12 | 2 | -5 | i | 0 | 1 | -7 | -28
O=C(COc1ccc(Br)cc1F)Nc1nnc(C2CC2)s1 | -8 | / | -7 | / | -2 | -2 | / | -6
Cc1ccc(C(=O)CSc2nc3ccccc3c(=O)n2N)o1 | -5 | 7 | -16 | i | -6 | 2 | 1 | -78
COc1ccccc1NC(=S)N/N=C1\CC(C)(C)Oc2ccc(O)cc21 | 50 | 22 | -20 | i | -2 | -8 | 0 | 10
CC(C)c1cc(-c2n[nH]c(=S)n2Cc2ccccc2)cs1 | -16 | 3 | -9 | i | 0 | -3 | -1 | -60
O=C(CSc1nnc2scc(-c3ccccc3)n12)NCc1ccco1 | -13 | -4 | / | i | -9 | 0 | 0 | -3
Cc1ccc(Oc2nc(-c3ccccc3)ncc2S(C)(=O)=O)cc1 | -5 | -13 | -14 | i | 5 | 2 | -4 | /
COc1ccc(S(=O)(=O)Nc2ccc3c(c2)C(=O)N([C@@H](C)CO)C[C@@H](C)[C@H](CN(C)S(=O)(=O)c2ccc(F)cc2)OCCCC[C@H](C)O3)cc1 | / | / | -6&1 | / | 3 | -4 | / | -163
CC1CCN(C(=O)/C(=C/c2ccccc2Cl)c2ccccc2)CC1 | 32 | -4 | 5 | i | -7 | -10 | -16 | /
O=C(O)COc1ccccc1/C=N/NC(=O)CSc1nnc(SCc2cccc3ccccc23)s1 | 7 | 13 | / | i | 7 | 0 | 8 | 10
C/C(=N/NC(=O)c1nnn(-c2nonc2N)c1COc1ccccc1)c1ccccc1Cl | 12 | -1 | -21 | i | -2 | -5 | 5 | -1
N#Cc1ccccc1Cn1cc(C#N)c2ccccc21 | -21 | 24 | -1 | i | 5 | -5 | -9 | /
O=C(c1ccc(F)cc1F)N1CCCc2ccccc21 | -6 | 12 | -12 | i | / | / | 4 | -15
